D2 potentiator: positive allosteric modulators of human D2 dopamine receptor; P14416; DiscoveRx D2 beta-arrestin cells, luminescence, 90 min; 100% = 57 uM dopamine signal; potentiation, % (test concentration not listed); actives 0.23% (n = 360,000); AID 624464; active = potentiation of 50% or more; inconclusive = 30% to 50%; inactive = 30% or less;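 also: compound concentration not given in the record; tested on top of an EC20 dose of dopamine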
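PathHunter beta-arrestin assay in DiscoveRx D2 cells. Compounds were added with an EC20 of dopamine (50 nM final) for 90 min at 37 deg C. Luminescence was read 1 h after detection reagent, with 57 uM dopamine as the EC100 control.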
gsp antagonist: antagonists of gsp mutant (McCune-Albright syndrome); gsp-mutant cells, cAMP HTRF, 30 min; control for the full effect not named in the record; Potency, µM (titrated, usually from 76.9 µM), for inactives: at the top dose activity change, negative = inhibition, actives largely listed as inhibitors; actives 0.4% (n = 340,000); AID 624288; active = falling curve of any shape with a large fitted effect; inconclusive = falling curve, mostly with a smaller effect; inactive = flat or rising curve; cell line not stated here;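 also: intracellular cAMP measured with PDE inhibitor Ro 20-1724 present during compound exposure; potency is read from the fitted curve at half-maximal effect; % is scaled to controls: 0 for no effect and ±100 for the full control effect; nearly all actives have a fitted effect of over 65% in size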
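Cells in G418 medium, seeded 16-24 h, 37C; buffer exchange to DPBS + 1 mM CaCl2, 0.5 mM MgCl2, 0.05% BSA; cpds in DMSO + […] (300 uM stock), 30 min 37C; HTRF cAMP detection.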
gsp ag: agonists of gsp mutant (McCune-Albright syndrome); Potency, µM (top dose mostly 76.9 µM), for the others: at the highest dose activation (cAMP increase), actives largely listed as activators; actives 0.13% (n = 340,000); AID 624287; gsp mutant cells, cAMP HTRF, 30 min; control for the full effect not named in the record; active = well fitted activation curve with a large enough effect; inconclusive = small, poorly fitted or top-dose-only effect, or another doubt; inactive = no such curve, though single readings can be large or run the other way; cell line not stated here;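 also: phosphodiesterase inhibitor Ro 20-1724 added with compounds to block cAMP breakdown; potency is read from the fitted curve at half-maximal effect; nearly all actives have a fitted effect of over 60% in size; about a fifth of the inactives were tested at one dose only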
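Cells stably selected in G418 were plated at 2000/well, grown 16-24 hr, then given compounds in DMSO with the PDE inhibitor […] (300 uM solution added) for 30 min at 37C; cAMP was read by HTRF.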
Sfp PPTase inh: blocks B. subtilis Sfp PPTase activity; Q9F4F7; Biochemical Sfp PPTase activity, qHTS; Potency, µM, inactives show max response, negative = inhibition, most hits filed as inhibitors; actives 3.5% (n = 310,000); active = well fitted inhibition curve with a large enough effect; inconclusive = small, poorly fitted or top-dose-only effect, or another doubt; inactive = no such curve, though single readings can be large or run the other way;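 also: the enzyme is Sfp with the accession as filed and its product quenches rhodamine fluorescence; potency is read from the fitted curve at half-maximal effect; 0% = enzyme reaction without inhibitor and -100% = no enzyme wells; top concentration of the series not given in the record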
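Buffer: 50 mM Hepes-Na pH 7.6, 10 mM MgCl2, 0.01% Nonidet P-40, 0.01% BSA. Enzyme 15 nM, pre-exposed to compound 15 min; substrates then added and fluorescence change tracked over 30 min.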
TRPV1 PAM: human TRPV1 potentiation; Q8NER1; TRPV1-expressing cells, Fluo-8 calcium influx, capsaicin EC20 potentiation; host cell line not named in the record; control for the full effect not named in the record; potentiation, % at 8.33 µM; actives 0.02% (n = 320,000); active means potentiation above 80%; inconclusive means 30% to 80%; inactive means below 30%; also: 0% is about no effect
Target sequence (Q8NER1 whole entry, looked up): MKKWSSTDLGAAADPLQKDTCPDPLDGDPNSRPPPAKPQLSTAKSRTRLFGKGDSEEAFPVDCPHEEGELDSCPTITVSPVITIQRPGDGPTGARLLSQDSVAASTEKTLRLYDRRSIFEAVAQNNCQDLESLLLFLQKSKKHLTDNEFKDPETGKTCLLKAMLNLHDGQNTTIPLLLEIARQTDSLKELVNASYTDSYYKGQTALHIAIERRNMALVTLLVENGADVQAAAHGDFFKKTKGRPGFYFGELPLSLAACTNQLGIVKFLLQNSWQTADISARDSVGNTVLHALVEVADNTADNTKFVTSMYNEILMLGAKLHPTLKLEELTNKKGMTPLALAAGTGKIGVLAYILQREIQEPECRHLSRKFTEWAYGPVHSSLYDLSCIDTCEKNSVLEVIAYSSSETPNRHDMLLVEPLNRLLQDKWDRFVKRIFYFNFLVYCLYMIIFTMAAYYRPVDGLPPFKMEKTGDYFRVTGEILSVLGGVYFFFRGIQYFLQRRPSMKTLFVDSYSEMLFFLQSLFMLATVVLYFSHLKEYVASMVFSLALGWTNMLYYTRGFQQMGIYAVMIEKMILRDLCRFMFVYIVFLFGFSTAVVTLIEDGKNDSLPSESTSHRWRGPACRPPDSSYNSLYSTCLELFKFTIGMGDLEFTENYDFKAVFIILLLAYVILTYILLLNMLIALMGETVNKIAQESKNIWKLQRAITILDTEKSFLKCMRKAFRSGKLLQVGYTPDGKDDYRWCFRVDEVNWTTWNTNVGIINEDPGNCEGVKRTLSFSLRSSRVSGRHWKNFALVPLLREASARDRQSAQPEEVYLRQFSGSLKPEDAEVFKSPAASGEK
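Fluo-8 calcium influx in TRPV1-expressing cells, kinetic read (ex 480/em 520 nm). Compound added and read 3 min for agonist activity, followed by capsaicin at EC20 final and 2 min further read for enhancement.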
ClpP mod: qHTS Assay for Activators of ClpP | ATP-dependent Clp protease proteolytic subunit (Bacillus subtilis (strain 168)), P80244 | purified B. subtilis ClpP, FRET peptide cleavage, 20 min | Potency, µM (titrated, usually from 57.5 µM), inactives show top-dose activity change, negative = active | actives 1.9% (n = 340,000); active = well fitted falling curve with a large enough effect; inconclusive = small, poorly fitted or top-dose-only effect; inactive = no such curve, though single readings can be large or run the other way; also: potency is read from the fitted curve at half-maximal effect; the source files actives as falling curves though it sought activators and does not explain the sign; nearly all actives have a fitted effect of over 65% in size; many hits overshoot -100%
Target sequence (P80244 whole entry, looked up): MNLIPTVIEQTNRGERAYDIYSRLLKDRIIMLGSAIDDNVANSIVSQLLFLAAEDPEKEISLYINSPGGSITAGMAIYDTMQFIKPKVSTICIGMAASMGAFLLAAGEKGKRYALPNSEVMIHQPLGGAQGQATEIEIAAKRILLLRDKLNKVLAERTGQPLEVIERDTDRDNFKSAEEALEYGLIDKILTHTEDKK
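FRET quenching reversal measured ClpP activation: 10 microg/mL B. subtilis ClpP at pH 8 with the FRET-FV decapeptide, read at 430 nm after 320 nm excitation. The 20-min minus 0-min signal was scaled between DMSO/no-enzyme wells and ADEP (5.8 microM final).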
Menin-MLL FL inh: displaces fluorescein MLL peptide from human menin | FP activity change, % at 61.4 µM | 290,000 tested, under 10 active | Fluorescence polarization, fluorescein-MLL peptide displacement from menin; inconclusive = falling polarisation curve, or a change in total fluorescence; inactive = total fluorescence flat and polarisation flat or rising; no compound was filed as active; the % refers to the polarisation; negative = inhibition;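 also: % of control where 0% means no effect; inhibitors lower the polarisation; unlabelled MLL peptide was the positive control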
Active calls of the source: *; ? = inconclusive; nt = no result given; [ ] = dose if it differs, or a comment.

SMILES	D2 potentiator	gsp antagonist	gsp ag	Sfp PPTase inh	TRPV1 PAM	ClpP mod	Menin-MLL FL inh
O=C(O)c1ccc(-n2cccn2)c([N+](=O)[O-])c1	-4	7%	5%	25%	4	nt	-0.2
OC(COCc1ccc(Cl)cc1)CN1CCCCC1 (stereo unspecified)	-12	3%	19%	11%	-5	-2.5%	nt
O=C(c1cc(-c2ccc(Cl)cc2)nc2ccccc12)N1CCC1	-13	-16%	-1%[15.4 µM]	nt	-5	-26%	nt
CC1(C)Cc2c(C#N)c(SCC(=O)O)nc(N3CCOCC3)c2CO1	-9	2%	-23%[15.4 µM]	nt	nt	nt	nt
Cc1ccn2c(NCc3ccccc3)c(-c3cccs3)nc2c1	3	-25%	3%[15.4 µM]	-21%	1	nt	-6.3
CCCNC(=O)CN1CCC(c2nc3ccccc3[nH]2)CC1	-9	-30%	-5%	8%	4	1.6%	nt
CC1(C)COC2(OC1)C(=O)N(CN1CCOCC1)c1ccccc12	0	9%	-10%[15.4 µM]	15%	-1	nt	0.2
Cc1ccc(S(=O)(=O)/N=C(/Nc2cccc(C(=O)O)c2)c2ccccc2)cc1	-10	15%	?	2%	2	-0.9%	-12
COCCNC(=O)c1ccc(CS(=O)(=O)c2ccccc2C)o1	-3	13%	15%	5%	16	-4.1%	-8.9
COC(=O)C[C@@H]1C[C@@H]2c3cc(NC(=O)Cc4ccncc4)ccc3O[C@@H]2[C@@H](CO)O1	9	nt	7%	nt	nt	-4.0%	nt
CCOc1ccc(C(=O)N2CCN(Cc3ccccc3)CC2)cc1OCC	-10	6%	2%[15.4 µM]	-3%	-1	1.8%	-1.0
Cc1cccc(N2CCN(C(=O)c3cc4c(=O)[nH]c5ccccc5c4n3C)CC2)c1C	1	6%	2%	nt	nt	5.1%	nt
O=C(CN1CCOCC1)Nc1ccc(Cl)cc1	-4	9%	-22%	15%	-8	0.3%	0.4
COCCNC(=O)c1ccccc1NC(=O)c1ccccc1N(C)S(C)(=O)=O	-3	-10%	-1%[15.4 µM]	-5%	-6	0.5%	-2.5
Cc1ccc(-n2nc3c([n+]2[O-])CCc2c-3no[n+]2[O-])cc1	3	-2%	9%	-3%	29	0.8%	4.0
COc1cc(OC)c(C2SCCCS2)cc1OC	-12	9%	-12%	4%	?	-32%	6.0
CCCCC(=O)Nc1ccc(C(=O)Nc2cccnc2)cc1	-5	-4%	?	28%	-14	-0.4%	-0.5
O=C(NCc1ccncc1)C(=O)NCC1OCCN1S(=O)(=O)c1ccc(Cl)cc1 (stereo unspecified)	0	7%	-2%	20%	-8	-2.4%	nt
CC(=O)Nc1ccc(S(=O)(=O)NCCc2ccc3c(c2)OCCO3)cc1	5	nt	?	nt	nt	0.9%	nt
N#CCCCC1(CCCC#N)OCCO1	-12	-1%	2%	nt	nt	0.4%	nt
CC(NCc1cccs1)c1ccccc1 (stereo unspecified)	-8	9%	?	-20%	-2	1.6%	-1.4
O=C(O)COc1ccc2occ(C(=O)c3ccccc3)c2c1	-2	-17%	-12%	15%	-6	-1.0%	-2.3
N#CCOC(=O)c1cc(S(=O)(=O)N2CCCCC2)ccc1N1CCOCC1	1	0%	-77%[inhibitor]	nt	-52	-1.5%	nt
Cc1ccc(S(=O)(=O)Nc2cccc3ncccc23)cc1	-10	-4%	4%	12%	-17	-2.1%	0.8
O=C(N/N=C/c1ccccc1F)c1csc2c1CCCC2	-34	13%	-11%	13%	-16	2.0%	3.2
CC1(C)N=C2C(=[N+]1[O-])CCC/C2=N\O	-13	16%	?	-3%	nt	0.1%	4.3
Cc1cc(Br)ccc1OCCCCN1CCCCC1	-26	16%	-2%[15.4 µM]	45µM*	-9	nt	-1.2
O=C(O)CN1C(=O)C2C3CC(C2C1=O)C1C(c2ccc(Cl)cc2)c2sc(=O)[nH]c2SC31 (stereo unspecified)	-7	3%	-36%[inhibitor]	-22%	11	-4.8%	2.5
CCn1c(SCC(=O)N/N=C/C=C\c2ccccc2[N+](=O)[O-])nnc1-c1ccccc1	19	-25%	-5%	26%	3	-2.8%	2.4
COc1ccc(CN2CCN(Cc3ccccc3F)CC2)c(OC)c1	-16	15%	-8%[15.4 µM]	?	14	24%	3.1
COc1ccccc1C(=O)N1CCN(Cc2cccnc2)CC1	-4	9%	-5%	63µM*	6	nt	-9.5
C#CCCOC(=O)Nc1ccccc1	18	13%	-25%	16%	-14	-1.0%	-7.5
CC(NS(=O)(=O)c1ccc(Cl)c(Cl)c1)C(=O)OCC(=O)Nc1ccc2c(c1)OCO2 (stereo unspecified)	-2	?	25%[15.4 µM]	-22%	4	1.3%	-5.4
CCOc1cc(N2CCOCC2)c(OCC)cc1NC(=O)CSc1ncccc1C(=O)O	6	-2%	3%	nt	nt	nt	nt
COc1ccc(CNc2ccc(N3CCOCC3)cc2)cc1	28	-8%	2%	-25%	6	0.6%	4.0
COc1ccc(N2CCN(C(=O)c3ccc(CS(=O)Cc4ccc(C)cc4)o3)CC2)cc1 (stereo unspecified)	4	4%	3%	0%	16	-0.3%	7.2
Nc1ncnc(NCc2ccccc2)c1[N+](=O)[O-]	-2	16%	28%	12%	?	nt	0.3
CCOC(=O)c1c(-c2cccs2)csc1NC(=O)CN1CC(C)OC(C)C1 (stereo unspecified)	-12	-3%	-18%	-12%	-9	?	3.2
CC(C)CNC(=O)NC(=O)COc1ccc(C=O)cc1	-2	-5%	-16%	-8%	20	0.0%	1.5
Cc1nnc(SCC(=O)NC2CC2)n1-c1ccccc1	-9	7%	9%	21%	4	-3.6%	nt
CCOC(=O)c1c(-c2ccc(C)cc2)csc1/N=C(\C)C1=C(O)c2ccccc2C1=O	2	-28%	-27%	?	23	-1.6%	1.4
CCOC(=O)Cc1csc(NC(=O)COc2ccc3c(c2)CCC3)n1	-3	-6%	-14%	5%	3	-0.7%	nt
COc1ccc(NC2CCCN(C(=O)CCN3CCCC3=O)C2)cc1 (stereo unspecified)	-1	-5%	18%[15.4 µM]	4%	-9	-7.0%	nt
COc1cc2oc(=O)c3c(c2cc1OCC(=O)c1c(C)n(C)c2ccccc12)CCCC3	-16	-9%	19%	-1%	-1	?	-0.9
O=C(CCNS(=O)(=O)c1ccccc1F)N1CCN(S(=O)(=O)c2cccc(F)c2)CC1	?	6%	1%[15.4 µM]	nt	-11	0.2%	nt
CCOC(=O)c1c(C)[nH]c(C(=O)OCC(=O)NCc2ccc(C)cc2)c1C	-8	6%	5%	nt	-12	-2.7%	nt
CC(C)CSc1n[nH]c(N)n1	-6	6%	7%[15.4 µM]	4%	-3	nt	-7.6
Cc1ccc(S(=O)(=O)N2CCCCC2)cc1NC(=O)CCN1C(=O)C2CC=CCC2C1=O (stereo unspecified)	10	0%	3%	nt	-3	1.9%	nt
Cn1cccc1/C=C1\CC(C(C)(C)C)C/C(=C\c2cccn2C)C1=O (stereo unspecified)	-6	-6%	-16%	-27%	11	1.0%	?
COc1ccc(CCNC(=O)CN2C(=O)COc3ccc(S(=O)(=O)N4CCOCC4)cc32)c(OC)c1	-6	-25%	-40%[inhibitor]	4%	-5	0.7%	nt
COCc1ccc(CN2CCC(Oc3ccc(C(=O)NCc4ccccn4)cc3)CC2)o1	-1	13%	-13%	9%	3	0.9%	nt
Cc1csc(CN(C)C(=O)C2CCC(=O)N(Cc3ccc(Cl)cc3)C2)n1 (stereo unspecified)	3	-6%	-73%[inhibitor]	13%	5	-1.7%	nt
COc1ccc(-c2nc(SCc3ccccc3)n(C(=O)c3ccco3)n2)cc1	-11	10%	-23%	8%	3	-1.1%	3.6
C/C=C/c1ccc(OCCSc2nc(C)cc(=O)[nH]2)c(OC)c1	2	-26%	2%	20%	-12	-2.7%	3.1
C=C(C)CNC(=S)Nc1nc2c(cc1C(=O)OCC)CCCC2	-2	6%	-24%	23%	3	3.3%	7.2
Cc1cc(C)nc(SCC(=O)N(C)CC(=O)Nc2ccccc2Br)n1	23	-11%	-3%	nt	4	-1.6%	nt
Cc1ccc(C)c(N2CCN(C(=O)CNS(=O)(=O)c3cccs3)CC2)c1	-1	-4%	-13%	0%	-15	-2.5%	2.0
O=c1c2ccccc2ncn1Cc1ccc2c(c1)OCO2	1	0%	20%	2%	14	-3.2%	3.8
CC(=O)c1sc(C(=O)O)c(-c2ccco2)c1-c1ccco1	-8	?	-27%	18µM*	2	-1.4%	0.2
CN(C)c1ccc(CNn2cnnc2SCc2ccc(F)cc2)cc1	-2	-17%	-26%	-3%	-14	0.1%	1.6

Copied from above (2 entries):
SMILES	D2 potentiator	gsp antagonist	gsp ag	Sfp PPTase inh	TRPV1 PAM	ClpP mod	Menin-MLL FL inh
C/C=C/c1ccc(OCCSc2nc(C)cc(=O)[nH]2)c(OC)c1	2	-26%	2%	20%	-12	-2.7%	3.1
C=C(C)CNC(=S)Nc1nc2c(cc1C(=O)OCC)CCCC2	-2	6%	-24%	23%	3	3.3%	7.2

Next part.
SMILES	D2 potentiator	gsp antagonist	gsp ag	Sfp PPTase inh	TRPV1 PAM	ClpP mod	Menin-MLL FL inh
C[C@H](CO)N1C[C@H](C)[C@@H](CN(C)S(=O)(=O)c2cn(C)cn2)Oc2ccc(NS(=O)(=O)c3ccccc3)cc2C1=O	-1	11%	-17%	nt	nt	1.1%	nt
CCOCCn1c(=O)c2c(nc3n2CCCN3Cc2ccccc2)n(C)c1=O	1	-20%	11%	10%	-4	nt	-0.2
COc1ccc(C(=O)Nc2ccncc2)cc1[N+](=O)[O-]	-4	1%	-28%	9%	-23	1.3%	2.5
NC(=O)CSc1cn(CCNC(=O)c2cccs2)c2ccccc12	1	2%	-8%	-1%	-5	-0.3%	1.3
COc1cc(OC)cc(-c2nc3nc(C)c(CCC(=O)O)c(C)n3n2)c1	-10	5%	11%	16%	0	-4.5%	0.6
O=C(Nc1ccsc1C(=O)N1CCCCCC1)c1ccccc1	7	-6%	0%	7%	-7	128%	2.2
C/C(=N\NC(=O)c1nnn(-c2nonc2N)c1-c1cccs1)c1ccc(C)cc1	1	-7%	21%	11%	-13	3.6%	nt
O=C(CCS(=O)(=O)c1ccccc1)Nc1nncs1	-1	1%	-10%	18%	?	nt	-1.2
O=S(=O)(c1ccc(-c2ccon2)s1)N1CCN(c2ccccn2)CC1	-8	5%	-6%[15.4 µM]	13%	8	nt	6.6

Screens from PubChem.
